Screening data as filed in PubChem BioAssay.
VDR inh: inhibitors of human vitamin D receptor; P11473; VDR-SRC2-3 peptide fluorescence polarization, 2 h; Potency, µM, for the others: max response, negative = inhibition, hits mostly inhibitors; 400,000 compounds, 0.93% hits; AID 504847; active = well fitted inhibition curve with a large enough effect; inconclusive = small, poorly fitted or top-dose-only effect, or another doubt; inactive = no such curve, though single readings can be large or run the other way; note: series mostly up to about 120 µM
Target sequence (P11473 whole entry, looked up): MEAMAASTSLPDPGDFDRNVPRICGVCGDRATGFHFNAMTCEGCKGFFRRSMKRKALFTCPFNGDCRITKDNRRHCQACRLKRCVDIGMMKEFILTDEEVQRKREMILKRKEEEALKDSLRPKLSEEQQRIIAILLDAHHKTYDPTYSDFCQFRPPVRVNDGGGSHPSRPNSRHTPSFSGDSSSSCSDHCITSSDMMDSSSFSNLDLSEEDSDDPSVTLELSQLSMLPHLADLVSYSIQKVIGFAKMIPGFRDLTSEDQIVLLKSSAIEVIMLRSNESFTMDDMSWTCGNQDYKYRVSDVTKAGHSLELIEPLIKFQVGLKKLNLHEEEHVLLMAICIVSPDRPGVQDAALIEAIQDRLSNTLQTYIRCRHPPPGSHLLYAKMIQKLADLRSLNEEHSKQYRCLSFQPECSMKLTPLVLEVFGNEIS
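After 23 nl compound addition and a short centrifugation, plates sat for 2 hours at ambient temperature; polarization of fluorescence then indicated loss of VDR binding to peptide SRC2-3.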
Starred values were filed as active, the others as inactive; ? = inconclusive; [ ] = another dose, or the depositor's remark. % is set by controls: 0 for no effect and ±100 for the full control effect; potency is the fitted concentration of half-maximal effect.

SMILES | VDR inh
COC(=O)C1CC23C=CCN4CCC5(c6ccccc6NC15C2C)C43 (centres undefined) | -19%
O=C(O)c1cc(Cl)c2ccccc2c1O | -13%
CC(=O)N1CCc2c(sc(NC(=O)CCS(=O)(=O)c3ccccc3)c2C(N)=O)C1 | 16%
Cc1nnc2sc(SCc3ccc(Cl)cc3)nn2c1=O | -4%
CSc1cccc(NC(=O)Nc2ccc(Cl)cc2)c1 | 6%
O=S(=O)(NC1CC1)c1ccc(S(=O)(=O)N2CCCC(c3nc(-c4cccnc4)no3)C2)cc1 (centres undefined) | -6%
CCOc1ccc(OCC)c(NC(=O)CN(C)S(=O)(=O)c2ccc3c(c2)CCCC(=O)N3)c1 | 0%
O=C(c1ccc2nc(Cc3cccc(Cl)c3)oc2c1)N1CCC(O)CC1 | -10%
Fc1ccc(NC(=S)NCc2ccccc2)cc1 | -3%
N#CC(c1ccc(O)cc1)c1ncc(C(F)(F)F)cc1Cl (centres undefined) | -1%
CC(C)c1ccc(Nc2nnc(SCC(=O)NCC3CCCO3)s2)cc1 (centres undefined) | 5%
CCn1c(SCC(=O)Nc2ccc3c(c2)OCO3)nnc1-c1ccccc1O | 8%
CCc1ccc(Nc2n[n+](C)c(-c3ccncc3)s2)cc1 | 79µM*
FC(F)(F)c1nc(Oc2ccccc2)c2ccccc2n1 | 12%
COc1ccc(C(C(=O)Nc2ccc(C(C)C)cc2)N(C)C(=O)c2ccc(=O)[nH]c2)cc1 (centres undefined) | 6%
CCC(=O)N1CCc2cc(S(=O)(=O)NC(Cc3ccccc3)C(=O)Nc3ccccc3C)ccc21 (centres undefined) | -6%
CC(C)c1c(C(=O)N/N=C/c2cccc(OCc3ccccc3)c2)nnn1-c1nonc1N | 9%
CN(C)C/C(Cl)=C(\Cl)c1ccccc1 | -7%
CCCCOc1ccc(NC(=O)Cn2c(=O)ccc3c(C)cc(C)nc32)cc1 | 1%
Cc1cc(Cl)ccc1NC(=O)CN1CCN(C(=O)c2ccco2)CC1 | -5%

Sorted by value in VDR inh (smallest number first): some entries from above.
SMILES | VDR inh
CCCCOc1ccc(NC(=O)Cn2c(=O)ccc3c(C)cc(C)nc32)cc1 | 1%
CC(C)c1ccc(Nc2nnc(SCC(=O)NCC3CCCO3)s2)cc1 (centres undefined) | 5%
COc1ccc(C(C(=O)Nc2ccc(C(C)C)cc2)N(C)C(=O)c2ccc(=O)[nH]c2)cc1 (centres undefined) | 6%
CCn1c(SCC(=O)Nc2ccc3c(c2)OCO3)nnc1-c1ccccc1O | 8%

Additional entries.
SMILES | VDR inh
COc1ccc(N2CCN(C(=O)COC(=O)[C@@H](NC(=O)OCc3ccccc3)C(C)C)CC2)cc1 | 5%
Nc1ncnc(Sc2ncccn2)c1[N+](=O)[O-] | 10%
CC(C)OC(=O)c1ccc(COC(=O)c2cnccn2)cc1 | 0%
O=C(Nc1nnc(COc2ccc(Cl)cc2)s1)c1cccs1 | -14%
Cc1cccc(Cn2c(=O)n(CCCCC(=O)NCc3ccc4c(c3)OCO4)c(=O)c3ccccc32)c1 | -3%
CC1=C(C(=O)c2ccccc2)C(c2ccc(N3CCOCC3)cc2)NC(=O)N1 (centres undefined) | 4%
CCOc1ccccc1CN1C(=O)NC2(CCCCCC2)C1=O | -1%
CC(C)(C)C(=O)O/N=C(\N)c1ccc([N+](=O)[O-])s1 | -2%
COc1ccc(Cl)cc1N(C)C(=O)c1cc2c(=O)oc3ccc(C)cc3c2s1 | -4%
COc1ccc(-n2nc(C(=O)N3CCCC(C)C3)c3c4ccccc4n(C)c3c2=O)cc1 (centres undefined) | -4%
CCOc1ccc(OCCC(=O)OC(C)C(=O)Nc2ccc(C(C)=O)cc2)cc1 (centres undefined) | -6%
CC(=O)Nc1ccc(S(=O)(=O)NC(C)c2nc(-c3ccccc3)no2)cc1 (centres undefined) | -12%
CCCOc1ccc(-c2nc3ccc(Br)cc3c(=O)o2)cc1 | -23%
COc1ccc(CNC(=O)c2oc3c(c2C)-c2nn(Cc4ccccc4Cl)cc2CC3)cc1 | 4%
CC(Oc1cc2oc(=O)c3c(c2cc1Cl)CCC3)C(=O)N1C[C@H]2C[C@@H](C1)c1cccc(=O)n1C2 (some centres undefined) | -14%
CCOC(=O)N1CCN(C(=O)C2CCCN(S(=O)(=O)c3ccccc3)C2)CC1 (centres undefined) | 8%
CC(C)Cc1cc(C(=O)Nc2ccccc2)c2ccccc2n1 | -3%
CC(=O)Nc1ccc(S(=O)(=O)n2nc(-c3ccc(C)cc3)nc2N)cc1 | -1%
N#CCNC(=O)C1c2ccccc2Oc2ccccc21 | 15%
CSc1nnc(C)c(=O)n1COC(=O)c1ccc(S(=O)(=O)N2CCOCC2)cc1 | -9%

Look-ups from the results shown:
Reading for CSc1cccc(NC(=O)Nc2ccc(Cl)cc2)c1 in VDR inh: 6%
Reading for CC(C)c1c(C(=O)N/N=C/c2cccc(OCc3ccccc3)c2)nnn1-c1nonc1N in VDR inh: 9%
Reading for CC(C)OC(=O)c1ccc(COC(=O)c2cnccn2)cc1 in VDR inh: 0%
Reading for CC(Oc1cc2oc(=O)c3c(c2cc1Cl)CCC3)C(=O)N1C[C@H]2C[C@@H](C1)c1cccc(=O)n1C2 (some centres undefined) in VDR inh: -14%
Reading for N#CC(c1ccc(O)cc1)c1ncc(C(F)(F)F)cc1Cl (centres undefined) in VDR inh: -1%

The listing continues:
SMILES | VDR inh
Cc1ccccc1CS(=O)(=O)c1snnc1C | 5%
C#CCOCCOCCOCCNc1nc(N2CCN(C(=O)[C@H](CCCN=C(N)N)n3cc(C(N)[C@@H](C)CC)nn3)CC2)nc(N2CCN(C(=O)[C@H](CCC(=O)O)n3cc([C@@H](N)CCCCN)nn3)CC2)n1 (some centres undefined) | 8%
Cc1ccccc1CN1CCCN(CC(=O)Nc2ccc(F)cc2)S1(=O)=O | 13%
CCCn1c(N)c(C(=O)CSc2nc3ccccc3s2)c(=O)[nH]c1=O | -18%
CC(C)C[C@H](N)c1cn([C@@H](Cc2ccc(O)cc2)C(=O)N2CCNCC2)nn1 | -12%
CC(C)(C)OC(=O)NCCCCCNC(=O)c1[nH]cnc1C(=O)NC1CCN(C(=O)OC(C)(C)C)CC1 | -2%
Cc1noc(C)c1COc1ccccc1C(=O)N1CCN(c2cccc(C(F)(F)F)c2)CC1 | 14%
O=C(Nc1ccc(Br)cc1F)C1CC(=O)N(C2CCCCC2)C1 (centres undefined) | 4%
COc1ccc(NC(=O)C(CCSC)NC(N)=O)cc1NS(=O)(=O)c1ccc(F)cc1 (centres undefined) | -1%
COc1ccc(N=C(c2ccccc2)c2c(C)[nH]n(-c3ccccc3)c2=O)c(OC)c1 | 15%
Cc1csc(N(C(=O)c2ccccc2F)c2ccccc2)n1 | 6%
O=C(COC(=O)CSc1ccc2ccccc2c1)NCc1ccc2c(c1)OCO2 | 4%
CN(C)c1nc(N/N=C/c2ccccc2O)nc(Nc2ccc(F)cc2)n1 | -1%
CC(=O)OCCc1c2ccccc2c(CCCN(C)C)c2ccccc12 | 89%[activator]
COc1cc2c3c(c1)/C(=C1/SC(=S)NC1=O)C(=O)N3C(C)(C)C=C2C | -5%
CCOC(=O)N1CCN(Cc2nc3cc(NC(=O)CC)ccc3n2CC)CC1 | 2%
CC(C)C(NC(=O)C(NC(=O)C1O[C@@H]2OC(C)(C)O[C@@H]2[C@H]2OC(C)(C)O[C@@H]12)C(C)C)C(=O)O (some centres undefined) | 28%
COc1ccc(CNC(=O)CN2CCN(c3ccccc3O)CC2)cc1OC | 3%
CCOC(=O)C1CCN(c2c(NCCN3CCCCC3C)c(=O)c2=O)CC1 (centres undefined) | -19%
Cc1ccccc1C(=O)O/N=C(\N)c1ccc([N+](=O)[O-])cc1 | 5%
O=C(O)CCCNS(=O)(=O)c1ccccc1 | -1%
COC(=O)c1cc2oc3ccccc3c2n1CC(=O)Nc1ccc(OC)c(OC)c1 | 11%
Cc1ccccc1C(=O)N/N=C/c1ccccn1 | -5%
CCCn1c(N)c(C(=O)CSc2nc3ccccc3n2CCC#N)c(=O)n(C)c1=O | -13%
O=C(N/N=C/c1ccco1)c1ccccc1OCc1ccc(Br)cc1 | -13%
COc1ccc2[nH]c3c(c2c1)CCN1C(=O)C(CC(=O)NCc2cccc(C(F)(F)F)c2)C[C@H](C(=O)N2CCCCC2)[C@@]31CCc1ccccc1 (some centres undefined) | -3%
COc1ccc(-c2nn(-c3ccccc3)cc2/C=C\C(=O)N2CCOCC2)cc1[N+](=O)[O-] | 12%
CN1CCN(C(=O)c2ccc(N(Cc3ccc(Cl)cc3)S(C)(=O)=O)cc2)CC1 | -9%
COc1ccccc1CN(C(=O)CNC(=O)c1ccco1)C(C(=O)NCC1CCCO1)c1ccccc1 (centres undefined) | -3%
COc1ccc(CNc2ccc(S(N)(=O)=O)cc2)c(OC)c1OC | 5%
CC(C)NS(=O)(=O)c1ccc(CCC(=O)O)cc1 | 5%
CCOCCc1nn2c(=O)cc(COC(=O)c3cccc(C)c3)nc2s1 | -7%
COc1ccc(C)cc1Nc1n[n+](-c2ccccc2)c(-c2ccc(N(C)C)cc2)s1 | 3%
Cc1[nH]c2ccccc2c1/C=N/NC(=O)c1cc(C(C)(C)C)[nH]n1 | 0%
COc1cc(NC(=O)Cn2c(=O)n(-c3ccccc3)c(=O)c3c4c(sc32)CCCC4)cc(OC)c1 | -12%
COc1ccc(NS(=O)(=O)c2cccs2)cn1 | 0%
CCOc1cc(/C=N/NC(=O)c2ccccn2)ccc1OC(=O)c1cccs1 | 8%
CCOc1ccccc1NC(=O)Cc1coc2c(C)c(C)ccc12 | 7%
CCn1cc(C(=O)NCCCN2CCCC2)c(=O)c2cc(S(=O)(=O)N3CCc4ccccc4C3)ccc21 | -4%
Cc1[nH]c2ccccc2c1/C=C/c1nc2ccccc2c(=O)n1-c1ccc([N+](=O)[O-])cc1 | -26%
COc1ccc(N(CC(=O)NN=C2CCCC2)S(=O)(=O)c2ccccc2)cc1 | -9%
COc1ccccc1N1CCN(C(=O)c2ccc3c(Cl)c4c(nc3c2)CCCC4)CC1 | -1%
CCOC(=O)CSc1nc2cc3c(cc2c(=O)n1CCCCCC(=O)NCc1ccc2c(c1)OCO2)OCO3 | 4%
COc1cc(NC(=O)c2ccnnc2)cc(C(=O)Nc2cccc(C(F)(F)F)c2)c1 | -17%
CCOC(=O)CN1CCc2c(C)nc3c(-c4ccc(OC)c(OC)c4)cnn3c21 | 5%
CCn1c(SCC(=O)N2CCOCC2)nnc1C(C)NC(=O)c1ccccc1 (centres undefined) | 0%
Cc1ccc(S(=O)(=O)NCC(=O)N(CC(=O)NC2CCCCC2)CC2CCCO2)cc1 (centres undefined) | 6%
COc1cc(C)c(C(=O)CSc2nnc(CNC(=O)c3ccco3)n2C)cc1C | 4%
CNC(=O)CSc1nnc(-c2ccncc2)n1Cc1ccccc1 | 3%
O=C(/C=C/NCc1cccnc1)C(F)(F)C(F)(F)F | 7%

Other results:
SMILES | VDR inh
Cc1cc2c(cc(C(=O)N3CCC(C(=O)N4CCCC4)CC3)n2Cc2c(F)cccc2Cl)o1 | -10%
O=[N+]([O-])c1ccc(/C=N/n2c(-c3ccccc3)n[nH]c2=S)cc1 | 7%
Oc1c(/C=N/c2ncn[nH]2)ccc2ccccc12 | 2%
O=C1CCCN1c1ccc(Br)cc1 | -12%
CCOC(=O)N1CCC(Nc2cccc(SC)c2)CC1 | -14%
CCN(CC(=O)Nc1ccc2c(c1)OCCO2)C(=O)C1CCCCC1 | -14%
O=C(c1cnn2c1NC(c1ccco1)CC2C(F)(F)F)N1CCN(c2cccc(Cl)c2)CC1 (centres undefined) | 5%
Cc1ccc(CCNC(=O)c2ccc(CSCc3ccccc3C)o2)cc1 | -1%
Cc1nc(SCC(=O)NCC2CCCO2)c2cc(-c3ccccc3)sc2n1 (centres undefined) | -13%
CN(C)c1ccc(C(=S)N2CCN(C(=S)Nc3ccccc3)CC2)cc1 | -9%
CCOc1ccccc1C(=O)Nc1nnc(SCC(=O)N2CCOCC2)s1 | -1%
COCCCNC(=O)c1[nH]c2cc(OC)ccc2c1Sc1ccc(C)cc1 | 15%
O=C(CCN1C(=O)C2C3C=CC(C3)C2C1=O)N1CC(=O)N(CCc2ccccc2)C(=O)C1 (centres undefined) | 6%
COc1ccccc1NC(=O)CN1CCN(c2ccccc2F)CC1 | 27%
Cc1ccccc1-c1nc(CS(=O)(=O)CC(=O)N2CCc3ccccc32)c(C)o1 | -8%
CC(=O)c1sc(N/N=C2\CC3CC2C(C)C3(C)C)nc1C (centres undefined) | 22%
CCOc1nc2cnccc2n(CC(=O)Nc2ccccc2F)c1=O | -16%
COc1cc(NC(=O)c2nn(-c3ccc(F)cc3)c(=O)n(C)c2=O)cc(OC)c1OC | 3%
COc1ccc(-c2ccoc2)cc1C1C2C=CCC(C)C2C(=O)N1Cc1ccccc1 (centres undefined) | ?
CCOC(=O)c1sc(NC(=O)c2nc3ncccn3n2)c(C(=O)OC(C)C)c1C | -3%
Cc1ccc(OCC(=O)NCCNC(=O)c2ccncc2)cc1C | -9%
O=C(Nc1cccc(Cl)c1Cl)C1CCCC1 | 12%
COc1ccc(C2(CNC(=O)CCC(=O)O)CCCC2)cc1 | 6%
COc1ccc(C2=NN3C(C2)c2ccccc2OC32C(=O)N(C)c3ccccc32)cc1 (centres undefined) | -4%
Cc1ccc(C)c(NC(=O)N2CCc3ccccc3C2)c1 | 5%
CCOC(=O)N1CCN(C(=O)c2ccc3c(c2)N=C(C)c2cc(Cl)ccc2S3)CC1 | -23%
COc1ccc(C(=O)N(CC(=O)NC(C)(C)C)c2ccc3c(c2)OCCO3)cc1OC | -10%
Cc1sc2ncnc(N3CCC(C(=O)Nc4sc5c(c4C(N)=O)CCC(C)C5)CC3)c2c1C (centres undefined) | -1%

Quoted at random: 2 records from the list, in no set order.
SMILES | VDR inh
O=C(Nc1cccc(Cl)c1Cl)C1CCCC1 | 12%
COc1ccc(C2(CNC(=O)CCC(=O)O)CCCC2)cc1 | 6%

A portion of the library, so the mix of outcomes need not match the whole.
